Compound activity from PubChem.
B2AR ag = beta2AR agonists driving receptor internalization, primary screen, cell-based, FAP fluorogen, flow cytometry | Beta-2 adrenergic receptor (Homo sapiens), P07550 | response, % (no concentration beside the values) | Am2.2-beta2AR cells; reference of the scale not given here | 340,000 tested, 0.43% active | AID 504454, 2011;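 active = response above a set limit, near 3 SD of response in nonfluorescent compounds, cut at about 42% in these data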;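 note: stock transfer was 100 nL into about 11 µL; a reference agonist was the positive control; negative values mostly stem from fluorescent compounds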
Vif A3G = inhibitors of Vif binding to APOBEC3G peptide, primary screen, biochemical, TR-FRET, GST-Vif 1-94, biotin-A3G peptide, dose response retest (AID 1117319) | Virion infectivity factor (Human immunodeficiency virus type 1 group M subtype B (isolate … | TR-FRET GST-Vif / biotin-A3G peptide binding; higher % means a stronger effect; test concentration not given here; strong numbers were not always called active | one-dose inhibition, %; IC50 in µM for titrated hits | 260,000 tested, 0.57% active;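 active = above the screen mean plus three standard deviations and confirmed in dose response; inconclusive = results disagree or hit not tested in dose response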;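 note: Vif residues 1-94 fused to GST binding biotinylated APOBEC3G peptide 110-148; 0% = full assay without inhibitor and 100% = GST in place of GST-Vif; retest series ran down from 100 µM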
HNF4A DNA FP = change in binding of human HNF4A to DNA, primary screen, biochemical, fluorescence polarization, FITC-DNA. 1 h. activity change, % at 10 µM. 360,000 tested, 0.3% active; in the data active = activity change above about 30%, passing the limit was not always enough;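 note: controls were the assay level and a saturating level of protein; the project sought stronger binding though the title names inhibitors; some compounds called inactive have numbers as strong as hits; positive values seem to mean higher polarization but the record does not say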
Target sequence (P41235 whole entry, looked up): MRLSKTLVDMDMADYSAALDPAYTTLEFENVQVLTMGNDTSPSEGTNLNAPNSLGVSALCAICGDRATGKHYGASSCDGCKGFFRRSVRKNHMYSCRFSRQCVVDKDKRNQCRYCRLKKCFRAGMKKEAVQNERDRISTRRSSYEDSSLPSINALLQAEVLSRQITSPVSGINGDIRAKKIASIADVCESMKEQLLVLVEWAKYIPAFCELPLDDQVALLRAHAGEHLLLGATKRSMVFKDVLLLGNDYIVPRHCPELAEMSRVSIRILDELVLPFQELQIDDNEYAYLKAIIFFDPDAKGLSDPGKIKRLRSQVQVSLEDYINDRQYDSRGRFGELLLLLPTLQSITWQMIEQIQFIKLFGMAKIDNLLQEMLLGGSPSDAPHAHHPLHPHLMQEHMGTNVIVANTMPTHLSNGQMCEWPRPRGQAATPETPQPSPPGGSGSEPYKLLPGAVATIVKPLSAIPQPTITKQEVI
A1 inh = caspase 3/7 activation in MEF A1-2A-BIM cells, primary screen, A1 inhibitor project, cell-based, luminescence, HTS | Caspase-Glo 3/7 luminescence, 3 h; percent of clofoctol response, vehicle zero | caspase activation, % (no concentration beside the values) | 330,000 tested, 0.066% active;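 active = over half of replicate activation scores above 10%, or exactly half above 10 with the replicate mean above 10; inconclusive = replicate mean below 10 yet half the replicates above 10; inactive = over half of replicates below 10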;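 note: wells of about 30 µL received 50 nL stock; many hits fall short of the cut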
UCH37 DUB inh = inhibitors of human UCH37 deubiquitinase, primary screen, biochemical, Ub-AMC cleavage, fluorescence; AID 588478, 2011; inhibition, % (no concentration beside the values); purified proteasome/UCH37; 330,000 tested, 0.33% active;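 active = mean of two replicates above 20%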;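 note: 0% = compound-free wells with enzyme and 100% = wells lacking proteasome; stock transfer was 100 nL into about 20 µL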
Target sequence (Q9Y5K5 whole entry, looked up): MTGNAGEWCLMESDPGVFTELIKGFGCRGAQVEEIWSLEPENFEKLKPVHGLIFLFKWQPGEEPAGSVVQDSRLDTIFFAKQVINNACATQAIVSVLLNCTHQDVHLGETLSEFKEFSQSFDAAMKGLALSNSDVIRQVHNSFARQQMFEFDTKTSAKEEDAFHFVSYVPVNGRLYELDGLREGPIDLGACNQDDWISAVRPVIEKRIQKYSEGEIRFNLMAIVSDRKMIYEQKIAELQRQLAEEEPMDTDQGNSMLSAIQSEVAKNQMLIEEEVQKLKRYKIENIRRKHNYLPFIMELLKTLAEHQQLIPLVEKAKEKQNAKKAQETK
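Material: human UCH37 enzyme supplied as purified proteasome complex / Amount: 0.15 nM proteasome as dispensed / Buffer or medium: pH 7.4 Tris-HCl (50 mM) with ovalbumin, ATP-MgCl2, DTT / Times: preincubation 30 min, reaction 25 min, room temperature / Technique: AMC fluorescence from Ub-AMC cleavage, excitation 355 nm, emission 460 nm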
E coli growth = E. coli growth inhibition, primary screen, OD600; Escherichia coli growth, 23 h; hits give low values; OD600 absorbance (concentration not given with the values); 330,000 tested, 0.21% active; AID 1053175, 2014;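 active = OD600 absorbance below the run mean of sample wells minus 3.6 SD, in any replicate, cut at about 0.56 in these data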;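 note: stock transfer was 300 nL into about 60 µL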
LANA-H2A inh = blockers of LANA interaction with H2A/H2B – biochemical, FP readout, HTS, primary screen; Protein LANA1 (Human herpesvirus 8 type P (isolate GK18)), Q9QR71; cell-free LANA-H2A/H2B peptide, fluorescence polarization; inhibition, % (test concentration not listed); 320,000 tested, 0.6% active; in the data active = inhibition mostly above about 10%, no sharp cut-off; inactive = mostly below about 6.7%;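 note: stock transfer was 7.5 nL into about 10 µL; 0% = median of vehicle wells and 100% = median of positive control wells; one replicate is shown; the record names a cut of 25% in any replicate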
An asterisk follows results filed as active; i = inactive; ? = inconclusive; nt = not tested or not shown. Outcome played no part in choosing rows; overall some 2.1% were active at least once.

SMILES	B2AR ag	Vif A3G	HNF4A DNA FP	A1 inh	UCH37 DUB inh	E coli growth	LANA-H2A inh
Cc1onc(-c2ccccc2)c1C(=O)n1cc(Br)cn1	-16	11%	-4.1	1.0	4.3	0.67	6.2
COc1cc(NS(=O)(=O)c2ccc(NC(=S)NC(=O)/C=C/c3ccc(OC)c(OC)c3)cc2)ncn1	7	-6%	1.2	0.2	-2.3	0.71	-1.2
N/C(=N\OS(=O)(=O)c1ccccc1)c1cccnc1	1	-13%	0.6	0.3	6.1	0.71	-8.5
Cn1c(=O)n(C)c2cc(N3CCCC3)c(NC(=O)c3cccc(F)c3)cc21	-10	nt	-3.4	0.1	3.2	0.67	0.2
CC(C)C(=O)c1cn(CC(=O)N2CCCc3ccccc32)c2ccccc12	0	-1%	-2.6	0.1	1.5	0.73	2.1
CC(=O)Nc1ccc2nc(NC(=O)c3ccc([N+](=O)[O-])o3)sc2c1	19	nt	6.0	-5.7	6.0	0.62	-1.2
COCCCNC(c1ccccc1)c1ccncc1 (stereo not drawn)	-5	-3%	0.5	1.0	-1.3	0.76	-3.3
COC(=O)c1sccc1NC(=O)c1c(C)c(-c2cccc(Cl)c2)nc2ccccc12	2	2%	0.7	-0.3	1.1	0.74	2.5
COc1ccccc1NC(=O)C(C)OC(=O)CN1C(=O)C2CC=CCC2C1=O (stereo not drawn)	-4	-6%	-5.2	0.6	1.3	0.62	3.6
O=[N+]([O-])c1ccc(OCC(O)CNCCNc2nccc(C(F)(F)F)n2)cc1 (stereo not drawn)	-2	-9%	1.3	0.4	5.4	0.66	1.6
CN1CCN(c2ccccc2NC(=O)COc2ccc(C3CCCCC3)cc2)CC1	1	nt	-1.7	-0.6	1.9	0.7	-5.0
NC(=O)C1CCN(C(=O)COc2ccc3c4c(c(=O)oc3c2)CCC4)CC1	-12	nt	-0.8	0.5	-24	0.73	7.1
Cc1ccc(C(=O)Cn2nnc3ccccc32)cc1[N+](=O)[O-]	0	3%	5.0	0.0	4.6	0.6	1.3
O=C(Cn1nc(-c2ccc(F)cc2)ccc1=O)Nc1ccc2c(c1)OCCO2	13	nt	-0.8	-0.3	-0.4	0.61	1.6
COc1ccccc1CCNC(=O)COc1cccc2c1OC(C)(C)C2	-3	-9%	2.3	0.1	5.7	0.67	-6.5
CCCCn1c(N)c(N(Cc2ccccc2OC)C(=O)CSCC(=O)Nc2cccc(C)c2)c(=O)[nH]c1=O	-2	nt	1.3	1.9	nt	nt	-1.6
COC(CN(C)C(=O)c1ccc2c(c1)NC(=O)c1ccccc1S2)OC	0	-8%	-1.5	-0.4	0.1	0.64	7.1
Cc1ccsc1C(=O)Nc1nc2ccccc2[nH]1	-4	-13%	2.5	-7.2	nt	nt	1.7
Cc1ccc(S(=O)(=O)N2CCC(CN3C(=O)c4cccc5cccc(c45)C3=O)CC2)cc1	-1	-2%	0.6	-0.4	-88	0.83	-6.9
O=C(Cc1ccccc1)NC(=S)Nc1ccc(OC(F)F)cc1	5	nt	-1.6	0.8	1.9	0.66	0.2
O=c1c2c(n3cnnc3n1-c1ccccc1)-c1ccccc1CC21CCCC1	-28	-1%	0.6	-0.1	-1.1	0.66	8.9
Nc1ccc(-c2cc(-c3cccc(N)c3)nc(-c3ccccc3)n2)cc1	-3	26%	0.0	0.5	-45	0.73	-2.7
Cc1nnc(SCC(=O)Nc2nccs2)n(N)c1=O	-4	-6%	-2.2	0.1	2.0	0.69	-1.7
Cc1nc2ccccc2c2c1CC(C(C)(Cl)Br)O2 (stereo not drawn)	0	-5%	-1.1	-0.5	4.3	0.61	0.4
CCOC(=O)c1c(NC(=O)CSc2nc3c(c(=O)n(C)c(=O)n3C)n2C(C)C)sc(C)c1C	-6	-6%	0.6	0.3	-1.9	0.66	7.3
The list goes on:
SMILES	B2AR ag	Vif A3G	HNF4A DNA FP	A1 inh	UCH37 DUB inh	E coli growth	LANA-H2A inh
Cc1cccc(OCC(=O)Nc2ccccc2N2CCCC2)c1C	32	2%	-1.1	0.1	0.0	0.61	-5.0
O=S(=O)([N-]c1nc2ccccc2nc1-n1cc[n+](Cc2ccccc2)c1)c1ccc(Cl)cc1	4	10%	0.7	0.2	nt	nt	2.9
CCN(C(=O)Cn1cc(C(C)=O)c2ccccc21)c1ccccc1	-3	1%	2.9	0.0	2.7	0.67	-0.5
O=c1[nH]nc(-c2ccc(NCCO)c([N+](=O)[O-])c2)c2ccccc12	22	0%	2.7	-0.6	4.4	0.63	-4.8
COC(=O)C(=O)C/C(=N/Nc1ncnc2ccccc12)c1ccc(Cl)cc1	-5	6%	3.8	1.7	nt	nt	-10
CN1CCN(C(c2cccc(Cl)c2)c2ccccc2Cl)CC1 (stereo not drawn)	7	nt	-4.9	1.1	5.6	0.64	0.6
Cc1ccc(NC(=S)N(CCCN2CCOCC2)Cc2ccco2)cc1C	2	0%	2.5	0.9	1.3	0.72	-0.2
Cc1cc(C)cc(C(=O)NC2C(=O)N3C(C(=O)O)=C(CSc4nnc(C)s4)CSC23)c1 (stereo not drawn)	1	18%	-3.1	0.6	5.6	0.68	4.9
COc1ccc(-c2nn3c(-c4ccccc4)nnc3s2)cc1OC	5	5%	2.3	0.0	-11	0.7	1.1
O=P(O)(CCc1ccccc1)CN1CCCCC1	6	2%	2.0	1.3	4.0	0.68	-4.6
Cc1ccccc1NC(=O)c1ccccc1-c1ccccc1	-2	nt	-3.4	0.1	6.3	0.7	5.3
COc1cc(/C=C/C(=O)OCC(=O)Nc2ccc(C)c(S(=O)(=O)N3CCCCC3)c2)ccc1O	-1	18%	1.9	-0.3	-14	0.7	-0.7
CN(CC(=O)Nc1ccccc1Br)C(=O)CNC(=O)c1ccc2c(c1)OCO2	0	-6%	-1.3	0.4	5.9	0.69	-0.2
O=C(O)Cc1ccc(C(=O)c2cccs2)s1	2	4%	-0.8	-0.3	9.4	0.68	-1.1
CN1C(=O)/C(=C/c2cccc(Cl)c2)Sc2ccc(C(=O)N3CCCC3)cc21	nt	nt	nt	0.1	-21	0.68	1.0
C=CCC(CC=C)(NC(=O)c1ccccc1C)c1ccccc1	2	-10%	7.0	1.8	2.6	0.73	-3.1
Cc1cnnc2ccc3c(no[n+]3[O-])c12	3	4.7µM*	-0.4	1.3	6.2	0.71	-2.5
CC1C(=O)Nc2ccccc2N1C(=O)c1ccccc1 (stereo not drawn)	1	3%	-2.8	0.2	-2.5	0.66	-1.7
O=S(=O)(c1ccc(Cl)cc1Br)N1CCCCC1	2	6%	-0.7	1.3	0.0	0.71	3.9
Cc1ccc(C(c2c(C)[nH][nH]c2=O)c2c(C)[nH][nH]c2=O)cc1	6	-4%	0.4	0.2	11	0.62	2.8
COc1cc(OC)c(NC(=O)CCNS(=O)(=O)c2cc(Br)cnc2N)cc1Cl	-2	-2%	1.8	-0.1	2.9	0.68	9.6
COc1ccccc1CNC(=O)C(CC(C)C)NC(=O)C1CCC(C)CC1 (stereo not drawn)	7	-5%	-4.7	0.5	4.4	0.68	3.7
O=C1CCC/C1=c1\s/c(=C\c2cccnc2)c(=O)n1-c1ccccc1	-8	3%	5.9	-0.6	nt	nt	0.7
CC[C@]12c3[nH]c4cc(CCC(=O)N(C)C)ccc4c3CCN1C(=O)[C@@H](CC(=O)NCCCn1ccnc1)C[C@@H]2C(=O)N1CCN(C(=O)C2CC2)CC1	-18	2%	-1.5	nt	2.2	0.66	nt
COc1cccc(-c2nc(N3CC(C)CC(C)C3)c3ccccc3n2)c1O (stereo not drawn)	7	0%	-0.4	nt	3.7	0.69	nt
The list continues:
SMILES	B2AR ag	Vif A3G	HNF4A DNA FP	A1 inh	UCH37 DUB inh	E coli growth	LANA-H2A inh
COCC(=O)Nc1cc(C(=O)NCC(C)C)ccc1Cl	2	4%	-1.4	0.0	5.4	0.65	1.8
CNC(=O)c1cc(OCC(F)(F)F)ccc1OCC(F)(F)F	-2	12%	-5.2	-0.6	-1.1	0.67	-4.0
O=C(NC1CCCCC1)N(Cc1cc2cc3c(cc2[nH]c1=O)OCCO3)CC1CCCO1 (stereo not drawn)	-1	?	3.2	0.3	-78	0.69	4.8
COC(=O)c1ccsc1NC(=O)CSc1nnnn1Cc1ccccc1	-1	13%	-1.6	-0.5	2.2	0.72	0.4
C/C(O)=C(\C#N)c1nnc2n1CCCCC2	-9	-2%	-4.2	0.4	0.0	0.72	2.3
COc1ccc(CNC(=O)CSc2nnnn2-c2ccccc2)cc1	-5	18%	-0.6	0.4	0.1	0.67	-1.5
CCOc1ccc(NC(=O)c2cccnc2C(=O)O)cc1	3	1%	-1.6	0.3	4.1	0.69	1.4
COc1ccc2oc(C(=O)OCC(=O)Nc3ccc(N4CCOCC4)cc3)c(C)c2c1	7	-4%	-3.3	-0.7	-15	0.67	0.1
C=CCC1NS(=O)(=O)OC(CCc2ccccc2)C1O (stereo not drawn)	5	nt	2.2	2.6	1.6	0.67	-0.5
CC(=O)Nc1cccc([N+](=O)[O-])c1	0	4%	-3.4	0.2	3.7	0.67	1.1
CCN1C(=O)c2cccc3c(Cl)ccc(c23)C1=O	1	-4%	-0.2	-0.7	-80	0.7	-1.8
O=C(COc1ccccc1Cl)Nc1ccc(C(=O)N2CCCCC2)cc1	7	-13%	-3.4	-0.8	0.8	0.67	-0.9
CCn1nnc(-c2ccccc2NS(=O)(=O)c2ccc(S(=O)(=O)N(C)C3CCCCC3)cc2)n1	-9	-1%	-1.4	0.7	1.7	0.71	-3.8
COC(=O)C1NN=C(C(=O)c2ccccc2)C1c1ccccc1 (stereo not drawn)	5	4%	7.1	-0.2	3.4	0.65	-2.2
CCCN(CC(=O)Nc1ccc(Cl)cc1Cl)C(=O)CC(NC(C)=O)c1ccccc1 (stereo not drawn)	2	nt	2.8	0.9	3.7	0.71	0.5
Cc1ccc2c(=O)oc(N(C)C)nc2c1	-4	-8%	0.2	0.2	-25	0.69	9.9
C=CCNC(=O)CSc1ncc2c(n1)-c1c(csc1SC)CC2	6	-7%	-0.2	1.4	i	0.71	-2.7
O=C(CSc1nnc(-c2ccncc2)s1)Nc1ccccc1	-9	nt	0.2	0.0	-2.6	0.69	-4.1

By substructure, those above with an aryl thioether with sulfur outside any ring (seven)
SMILES	B2AR ag	Vif A3G	HNF4A DNA FP	A1 inh	UCH37 DUB inh	E coli growth	LANA-H2A inh
Cc1nnc(SCC(=O)Nc2nccs2)n(N)c1=O	-4	-6%	-2.2	0.1	2.0	0.69	-1.7
CCOC(=O)c1c(NC(=O)CSc2nc3c(c(=O)n(C)c(=O)n3C)n2C(C)C)sc(C)c1C	-6	-6%	0.6	0.3	-1.9	0.66	7.3
Cc1cc(C)cc(C(=O)NC2C(=O)N3C(C(=O)O)=C(CSc4nnc(C)s4)CSC23)c1 (stereo not drawn)	1	18%	-3.1	0.6	5.6	0.68	4.9
COC(=O)c1ccsc1NC(=O)CSc1nnnn1Cc1ccccc1	-1	13%	-1.6	-0.5	2.2	0.72	0.4
COc1ccc(CNC(=O)CSc2nnnn2-c2ccccc2)cc1	-5	18%	-0.6	0.4	0.1	0.67	-1.5
C=CCNC(=O)CSc1ncc2c(n1)-c1c(csc1SC)CC2	6	-7%	-0.2	1.4	i	0.71	-2.7
O=C(CSc1nnc(-c2ccncc2)s1)Nc1ccccc1	-9	nt	0.2	0.0	-2.6	0.69	-4.1
